# Bioassay records: PubChem BioAssay, National Center for Advancing Translational Sciences (NCATS)
# VDR inh: Inhibitors of the vitamin D receptor (VDR): qHTS | Potency, µM, without a hit: max response, negative = inhibition, most hits filed as inhibitors | 0.93% of 400,000 active | VDR-SRC2-3 peptide fluorescence polarization, 2 h; active means well fitted inhibition curve with a large enough effect; inconclusive means small, poorly fitted or top-dose-only effect, or another doubt; inactive means no such curve, though single readings can be large or run the other way; further: series mostly up to about 120 µM
# Target sequence (P11473 whole entry, looked up): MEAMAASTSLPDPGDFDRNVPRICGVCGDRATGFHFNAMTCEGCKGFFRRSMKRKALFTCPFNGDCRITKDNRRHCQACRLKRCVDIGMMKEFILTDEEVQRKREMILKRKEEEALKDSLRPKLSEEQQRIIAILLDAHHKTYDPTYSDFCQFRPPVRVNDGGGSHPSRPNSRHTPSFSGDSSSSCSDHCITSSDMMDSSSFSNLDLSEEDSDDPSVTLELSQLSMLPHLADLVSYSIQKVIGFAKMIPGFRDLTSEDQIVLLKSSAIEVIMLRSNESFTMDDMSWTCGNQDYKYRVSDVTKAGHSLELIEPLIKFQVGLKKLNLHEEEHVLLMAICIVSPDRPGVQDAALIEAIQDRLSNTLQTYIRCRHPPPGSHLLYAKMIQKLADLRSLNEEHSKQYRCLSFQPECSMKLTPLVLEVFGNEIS
#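 Signal is fluorescence polarization, reporting how far test compounds block the interaction of VDR with the SRC2-3 coregulator peptide after a 2 h room-temperature incubation.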
# * marks the source's active call; other numbers are inactive results; ? = inconclusive; & = joins results of further samples. On the % scale 0 is the no-effect control and ±100 the full control effect; potency means the concentration at half of the fitted maximal effect. An excerpt. The share of hits here may be higher or lower than overall.
no.	VDR inh	Molecule
1	-15%	CC(C)(C)OC(=O)N1CCCC1C(=O)O (configuration not stated)
2	-4%	COc1ccccc1-n1cnc(N)c1C(C)=O
3	-2%	CCOc1ccc(S(=O)(=O)NCc2cccnc2)cc1NC(=O)c1ccccc1
4	-1%	CCCc1cc(CNC(=O)C2CCC(=O)N(CCc3cccc(F)c3)C2)on1 (configuration not stated)
5	-2%	COC(=O)C1=C(C)N(C)C(C)=C(C(=O)OC)C1c1ccccn1
6	-91%	Cc1ccc(SCc2[nH]nc3c2C(c2ccco2)C(C#N)=C(N)O3)cc1 (configuration not stated)
7	-12%	COCCNC(=O)C(c1ccc(O)cc1)N(Cc1ccccc1)C(=O)CCC(=O)Nc1ccccn1 (configuration not stated)
8	2%	Cc1ncc2c(c1OC(=O)c1ccc([N+](=O)[O-])cc1)COC(C)(C)OC2
9	-9%	CCOc1ccc(-c2n[nH]c(C)c2Oc2ccc(OC)cc2)c(O)c1
10	-5%	COc1ccc(Cn2c(=S)[nH]c3cc(OC)c(OC)cc3c2=O)cc1
11	19%	COc1cc2c(cc1OC)C(C)N(S(=O)(=O)c1cn(C)c(C)n1)CC2 (configuration not stated)
12	-12%	COc1ccc(CCC(=O)OCC(=O)Nc2ccccc2)cc1
13	-5%	Cn1c(=O)[nH]c(=O)c2c1nc(N1CCCCC1)n2CCSc1ncccn1
14	5%	CCCN1C(=O)SC(CC(=O)Nc2cccc3ccccc23)C1=O (configuration not stated)
15	4%	Cc1ccc(N(C(=O)CCC(=O)Nc2cc(C)on2)C(C(=O)NC2CCCC2)c2cccs2)cc1 (configuration not stated)
16	-1%	Cc1nn(C(C)C(=O)NCCN2CCCCCC2)c(=O)c2nn(-c3ccccc3)c(C)c12 (configuration not stated)
17	2%	Cc1cccc(-n2c(=O)c3c(c4cc(C)ccc4n3C)n(CC(=O)NCC3CCCO3)c2=O)c1 (configuration not stated)
18	-16%	Cc1ccc([N+](=O)[O-])cc1N/C=C/C(=O)c1ccco1
19	3%	CCn1c(SCC(=O)N(C)CC(=O)Nc2ccc(F)c(F)c2F)nnc1-c1ccco1
20	45µM*	O=C(/C=C/c1ccc(Br)cc1)c1ccco1
21	7%	CCCCc1cc(=O)oc2cc(OC3CCCCC3=O)ccc12 (configuration not stated)
22	-16%	Cc1ccc2[nH]c(=O)c(-c3nc4ccccn4c3NCc3ccco3)cc2c1
23	-3%	CCCCCCCCCCC/C=C\C(C)(C)/C=C\CCCC(=O)O
24	0%	CN(C)c1ccc(C(CNC(=O)c2ccc(F)cc2)c2c[nH]c3ccccc23)cc1 (configuration not stated)
25	6%	CCOc1ccc(NC(=O)CC2C(=O)N(c3ccc(OC)cc3)C(=O)N2CCc2cccs2)cc1 (configuration not stated)
26	-9%	C=CCN1C(=O)C(Cc2ccccc2)SC1=Nc1ccc(C(=O)O)cc1 (configuration not stated)
27	-16%	O=C(CCCCCCN1C(=O)c2ccccc2C1=O)N1CCC(c2ccccc2)C1 (configuration not stated)
28	8%	COc1ccc(Nc2ncc(C(=O)O)c3ccccc23)cc1
29	-12%	Cc1cc(NC(=O)c2ccccc2C)ccc1NC(=O)c1ccccc1Cl
30	-15%	Cc1cc(C)nc(SCC(=O)Nc2nonc2N)n1
31	-2%	CC(C)CC1(C)NC(=O)N(CC(=O)N2C(C)CCCC2C)C1=O (configuration not stated)
32	?	COc1ccc(C2=Nn3c(nnc3-c3ccccc3F)SC2)cc1OC1CCCC1
33	11%	Cc1cccc(CNC(=O)c2ccc(NC(=O)N3CCSc4ccccc43)cc2)c1
34	-14%	CC1CCc2c(sc3nc(CN4CCOCC4)nc(Sc4ccccc4)c23)C1 (configuration not stated)
35	12%	Cc1ccc2sc(N(CCN(C)C)C(=O)/C=C/c3cccs3)nc2c1C
36	-8%	Cc1cc(C(=O)NCc2ccco2)sc1C
37	?	COc1ccc(C2(CNC(=O)c3ccc(OCC(C)C)cc3)CCOCC2)cc1
38	0%	Cc1c(C)n(CC(O)CN2CCCCCC2)c2ccccc12 (configuration not stated)
39	-7%	O=C(/C=C/c1ccc([N+](=O)[O-])o1)NNC(=O)c1ccc(F)cc1
40	-22%	CC1(c2ccccc2)CC(C)(C)n2c(O)c(C3=NC(=S)NC3=O)c3cccc1c32 (configuration not stated)
41	0%	O=C(NN1C(=O)C2C3c4ccccc4C(c4ccccc43)C2C1=O)C1CC1 (configuration not stated)
42	-3%	CSCC[C@H](NC(=O)N1CCn2c1nc1ccccc12)C(=O)N[C@@H](C(=O)O)c1ccccc1
43	0%	Cc1cc(C)c(C(=O)Nc2ccc(S(=O)(=O)Nc3ccccn3)cc2)c(C)c1
44	3%	Nc1ccc(NC(=O)c2cccs2)cc1
45	-3%	CC(=O)c1c(C)[nH]c(C(=O)COC(=O)COc2ccccc2F)c1C
46	13%	CCN1CCN(c2ncnc3c2c(-c2ccccc2)cn3-c2ccc(F)cc2)CC1
47	10%	Cc1ccc(C)c(N2CCN(S(=O)(=O)c3cc(-c4cc(C)no4)ccc3C)CC2)c1
48	6%	Cc1cc(-c2ccc(Cl)cc2)c(C#N)c(N)n1
49	10%	C=CCn1c(SCC(=O)c2c(N)n(C)c(=O)n(C)c2=O)nc2sc(CC)cc2c1=O
50	-19%	COc1ccc([C@H]2/C=C\CN(S(=O)(=O)/C=C/c3ccccc3)[C@@H](C)C(=O)N2Cc2ccc(F)cc2)cc1

# Following part.
no.	VDR inh	Molecule
51	-15%	O=C(Nc1sc2c(c1C(=O)O)CCCC2)c1cccc(Cl)c1
52	-23%	CCN(c1ccccc1)S(=O)(=O)c1ccc(Cl)c(C(=O)OCC(=O)NC(=O)C(C)C)c1
53	7%	Oc1ccc(Br)cc1CNn1cnnc1
54	-4%	COCc1[nH]nc2c1C(c1ccsc1)C(C#N)=C(N)O2 (configuration not stated)
55	1%	O=C(c1cccc([N+](=O)[O-])c1)c1ccc2[nH]c(=O)[nH]c2c1
56	-7%	Nc1cc(=O)[nH]c(SC/C=C/c2ccccc2)n1
57	-4%	COc1ccccc1CNC(=O)C(C)n1ccc2cc(S(=O)(=O)N3CCCC3)ccc21 (configuration not stated)
58	12%&2%	COc1cc(NC(=O)CCc2nc(-c3cccs3)no2)cc(OC)c1OC
59	-7%	O=C(CN1C(=O)COc2ccc(S(=O)(=O)N3CCCCCC3)cc21)N1CCN(c2ccccc2F)CC1
60	-5%	CN(Cc1ccccc1)Cc1ccccc1C(O)c1ccccc1 (configuration not stated)
61	-7%	S=C(NC1CCCCC1)N(CCc1nc2ccccc2[nH]1)C1CCCC1
62	0%	CC(=O)c1ccc(NC(=O)CN2C(=O)COc3ccc(Cl)cc32)cc1
63	11%	COc1ccccc1OCC(=O)Nc1ccc(S(=O)(=O)N(C)c2ccccc2)cc1
64	-11%	Cn1cc(CN2CCCC(CO)(Cc3cccc(Cl)c3)C2)cn1 (configuration not stated)
65	-13%	Cc1cc(S(=O)(=O)N2CCOCC2)ccc1OCC(=O)Nc1ccc(F)cc1
66	15%	CSc1ncccc1C(=O)Nc1ccc(S(=O)(=O)NC2=NCCCCC2)cc1
67	-5%	O=C(Oc1ccc([N+](=O)[O-])cc1)C1CC(=O)N(c2ccc3c(c2)OCCO3)C1 (configuration not stated)
68	18%	COc1ccccc1CC(Cc1nc2ccccc2[nH]1)c1nc2ccccc2[nH]1 (configuration not stated)
69	1%	Cc1ccc(N2CC(C(=O)Nc3ccc(N(C)C)cc3)CC2=O)cc1C (configuration not stated)
70	-11%	CC(NC(=O)COC(=O)Cc1ccc(Cl)cc1)c1ccccc1 (configuration not stated)
71	-8%	CC1CC1C(=O)Nc1nc2ccc(S(C)(=O)=O)cc2s1 (configuration not stated)
72	-2%	O=C(Cc1ccccc1)N/N=C/c1cc(Br)c(Br)o1
73	-1%	N#Cc1ccc(S(=O)(=O)Nc2ccccc2N2CCOCC2)cc1
74	-6%	CCC(C)NC(=O)CSc1nc2c(sc(=S)n2Cc2ccco2)c(=O)n1-c1ccccc1 (configuration not stated)
75	-14%	COCCn1c(C)cc(C(=O)CN2CCCCC2)c1C
76	-25%	CCCS(=O)(=O)c1c(S(=O)(=O)CCC)c2cc(C(C)(C)C)ccn2c1C(=O)c1ccc(OC)c(OC)c1
77	11%	O=C(NNC(=O)c1cc2c(s1)CCCC2)c1ccccc1
78	-4%	Cc1ccc(Nc2nc(NCc3ccco3)nc3nccnc23)c(C)c1
79	3%	CC1(C)CC(NC(=O)CC(c2ccccc2)c2ccccc2)CC(C)(C)N1
80	-2%	Cc1ccc2occ(-c3cc(-c4ccccc4)nc4c3COc3ccccc3-4)c(=O)c2c1
81	21%	Cc1occc1C(=O)NNC(=O)c1ccc(S(=O)(=O)N(C)C)cc1
82	9%	CCOc1ccc(CNC(=O)c2cnc3sc(N(CC)CC)nn3c2=O)cc1
83	25µM*	CCOc1ccc(C(=O)CCN2CCCCCC2)cc1
84	5%	Cc1nnc(C)n1/N=C/c1cccs1
85	0%	CCOC(=O)C1=C(CNCc2ccc(C)cc2)NC(=O)NC1c1cc(C)ccc1C (configuration not stated)
86	2%	CC(C)(C)c1ccc(C(=O)c2c[nH]c(C(=O)NCc3cccs3)c2)cc1
87	-8%	Cc1ccc(-n2c(O)c(C=NCc3ccccn3)c3ccccc3c2=O)cc1
88	3%	O=C(COc1ccc(S(=O)(=O)N2CCCC2)cc1Cl)NCc1cccnc1
89	?	CCOC(=O)C(NS(=O)(=O)c1ccccc1)(C(F)(F)F)P(=O)(OCC(C)C)OCC(C)C (configuration not stated)
90	-2%	COCCCN1C(=O)C(=O)/C(=C(/O)c2ccc(S(=O)(=O)N3CCOCC3)cc2)C1c1ccc(Cl)cc1 (configuration not stated)

# 3 compounds drawn at random from those above, as already listed:
no.	VDR inh	Molecule
52	-23%	CCN(c1ccccc1)S(=O)(=O)c1ccc(Cl)c(C(=O)OCC(=O)NC(=O)C(C)C)c1
65	-13%	Cc1cc(S(=O)(=O)N2CCOCC2)ccc1OCC(=O)Nc1ccc(F)cc1
83	25µM*	CCOc1ccc(C(=O)CCN2CCCCCC2)cc1

# Other records.
no.	VDR inh	Molecule
91	-7%	COc1ccc(S(=O)(=O)N2CCC(C(=O)NCCc3c[nH]c4ccccc34)CC2)cc1
92	-14%	CCOC(=O)c1sc(N2C(=O)C(O)=C(C(=O)c3ccc(C)o3)C2c2ccc(OC)c(OC)c2)nc1C (configuration not stated)
93	-15%	Cc1ccc(C(C)(C)C)c(OCC(=O)NCCc2nc3ccccc3[nH]2)c1
94	-8%	COC(=O)c1cc(NC(=O)CC2NC3CCCCC3NC2=O)cc(C(=O)OC)c1 (configuration not stated)
95	-10%	Cc1ccc(N(C)S(=O)(=O)c2c(C)[nH]c(C)c2C(=O)N2CCCC2)cc1
96	-5%	CCc1cc(C(=O)N2CCCC(N3CCN(c4cccc(C(F)(F)F)c4)CC3)C2)n(C)n1 (configuration not stated)
97	-3%	Cc1ccc(C)c(N2CCN(CCCNC(=O)Cn3cccc3C(=O)c3ccccc3C)CC2)c1
98	2%	CCOc1ccccc1N1CC(c2nc3ccccc3n2CCOc2ccccc2OC)CC1=O (configuration not stated)
99	-12%	CC1(C)CC2CC(C)(CN2C(=O)C23CCC(C)(C(=O)C2)C3(C)C)C1 (configuration not stated)
100	-2%	COc1ccc(C(CNC(=O)c2ccc(NS(=O)(=O)c3ccc(F)cc3)cc2)N2CCOCC2)cc1 (configuration not stated)
101	2%	COc1ccccc1-c1ccc(=O)n(CC(=O)NC(C)(C)C)n1
102	-5%	CCOC(=O)c1ccc(N2CCN(c3ccc(F)cc3)CC2)c(NC(=O)Nc2ccc(CC)cc2)c1
103	-13%	Cc1nn(C)c(C)c1S(=O)(=O)N(CC(=O)NCCCOC(C)C)c1ccc(C(C)C)cc1
104	-18%	Cc1cccn2c(CN(C)C3CCCc4ccccc43)c(C(=O)N3CCOCC3)nc12 (configuration not stated)
105	-1%	CC(C(c1ccc2c(c1)OCO2)c1c(N)n(C)c(=O)n(C)c1=O)[N+](=O)[O-] (configuration not stated)
106	-10%	CN(C)S(=O)(=O)c1cccc(NC(=O)c2ccc(NS(=O)(=O)c3cccs3)cc2)c1
107	79µM*	CCC(CC)c1nnc(NC(=O)C2CC(=O)N(CCc3ccc(F)cc3)C2)s1 (configuration not stated)
108	11%	CC(=O)c1c(C)oc2c1cc(NS(=O)(=O)c1c(C)cc(C)cc1C)c1ccccc12
109	6%	CCOC(=O)c1ccc(N2C(=O)c3n[nH]c(-c4ccco4)c3C2c2ccc([N+](=O)[O-])cc2)cc1 (configuration not stated)
110	19%	CCOc1ccc(C2c3c(-c4ccccc4O)n[nH]c3C(=O)N2Cc2ccncc2)cc1 (configuration not stated)

# Among those listed so far, 9 contain a Cl atom.
no.	VDR inh	Molecule
29	-12%	Cc1cc(NC(=O)c2ccccc2C)ccc1NC(=O)c1ccccc1Cl
48	6%	Cc1cc(-c2ccc(Cl)cc2)c(C#N)c(N)n1
51	-15%	O=C(Nc1sc2c(c1C(=O)O)CCCC2)c1cccc(Cl)c1
52	-23%	CCN(c1ccccc1)S(=O)(=O)c1ccc(Cl)c(C(=O)OCC(=O)NC(=O)C(C)C)c1
62	0%	CC(=O)c1ccc(NC(=O)CN2C(=O)COc3ccc(Cl)cc32)cc1
64	-11%	Cn1cc(CN2CCCC(CO)(Cc3cccc(Cl)c3)C2)cn1 (configuration not stated)
70	-11%	CC(NC(=O)COC(=O)Cc1ccc(Cl)cc1)c1ccccc1 (configuration not stated)
88	3%	O=C(COc1ccc(S(=O)(=O)N2CCCC2)cc1Cl)NCc1cccnc1
90	-2%	COCCCN1C(=O)C(=O)/C(=C(/O)c2ccc(S(=O)(=O)N3CCOCC3)cc2)C1c1ccc(Cl)cc1 (configuration not stated)
